# RVFV N-RNA inh = blocks Rift Valley Fever Virus nucleoprotein binding to RNA. 20,000 compounds, 0.1% hits. AID 651828. RVFV N-RNA binding, fluorescence polarization; stronger effect = lower value. % bound, % (test concentration not listed);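 active = between 0 and 58% in either replicate with normal brightness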;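 also: 100 nL library stock added to about 12 µL; 100% = protein and probe without compound and 0% = probe alone; numbers are from one replicate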
# Target sequence (P21700 whole entry, looked up): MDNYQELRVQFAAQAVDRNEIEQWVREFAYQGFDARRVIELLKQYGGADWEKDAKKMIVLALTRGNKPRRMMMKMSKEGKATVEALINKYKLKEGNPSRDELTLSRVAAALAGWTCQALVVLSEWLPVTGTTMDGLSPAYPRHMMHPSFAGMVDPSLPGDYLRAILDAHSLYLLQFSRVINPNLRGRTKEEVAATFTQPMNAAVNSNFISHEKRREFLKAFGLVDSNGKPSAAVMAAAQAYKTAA
# * = called active by the depositor; & = joins results of further samples. Only part of the results is shown, so the mix of outcomes need not match the whole.
SMILES,RVFV N-RNA inh
Cc1ccc(NC(=O)c2cnc(SCC(=O)NCc3ccc4c(c3)OCO4)n(C)c2=O)cc1,99
Cn1cc(/C=C2\SC(=O)NC2=S)c2ccccc21,104
COc1ccc(NC(=O)CCc2ccc(C)o2)cc1,91
Nc1nc(CSc2nc3ccccc3o2)cs1,96
CCCN1CCC(N2CCN(CCO)CC2)CC1,95
c1ccc2[nH]c(-c3cscn3)nc2c1,99
CC1=CC(=C(C#N)C#N)C=C(c2ccccc2)N1Cc1ccco1,90
COc1ccc(-c2[nH]ncc2C=C(C#N)C#N)cc1,96
Nc1c(C(=O)OC2CCCCC2)c2nc3ccccc3nc2n1Cc1ccco1,97
O=C(NC1CCS(=O)(=O)C1)C(c1ccccc1)c1ccccc1 (stereo not drawn),94
CCOC(=O)C1C(c2ccc(Br)cc2)C(C(=O)OCC)C(O)(C(F)(F)F)NC1(O)C(F)(F)F (stereo not drawn),98
CC(C)(C)C(=O)N(Cc1ccccc1)Cc1ccccc1,94
CSc1nc2ccc(Br)cc2[nH]1,94
CCOC(=O)N1CCN(c2c(F)cc3[nH]c(=S)[nH]c3c2Br)CC1,93
O=C(NC1CCCC1)c1ccc(Br)s1,94
O=c1[nH]cc(S(=O)(=O)N2CCc3ccccc32)c(=O)[nH]1,100
CCCn1c(NC(=O)Nc2ccccc2)c2ccccc2nc1=O,95
S=c1nc[nH]c2c1nnn2Cc1ccc(Cl)cc1,97
Cc1c(CC(N)=O)c(=O)oc2cc(O)c(Cl)cc12,93
Cc1occc1C(=O)Nc1cccc(/C=C/C(=O)O)c1,100
Cc1c(-c2ccn[nH]2)cnn1-c1c(Cl)cc(Cl)cc1Cl,106
CCOC(=O)c1ccc2nc(C(F)(F)F)cc(N3CC(C)CC(C)C3)c2c1 (stereo not drawn),96
CO[C@H]1C[C@@H]2CC[C@@H](C)[C@@](O)(O2)C(=O)C(=O)N2CCCC[C@H]2C(=O)O[C@H]([C@H](C)C[C@@H]2CC[C@@H](O)[C@H](OC)C2)CC(=O)[C@H](C)/C=C(\C)[C@@H](O)[C@@H](OC)C(=O)[C@H](C)C[C@H](C)/C=C/C=C/C=C/1C,104
COC(=O)c1ccc(COC(=O)c2ccccc2OC)cc1,95
CCC(=O)N1CCN(c2ccc(NC(=S)NC(=O)c3cc4ccccc4o3)cc2Cl)CC1,100
CC1CCN(C(=O)CSc2ncnc3c2nnn3Cc2ccc(F)cc2)CC1,92
COc1nc(N(C)C)nc(N(C#N)S(=O)(=O)c2ccc(C)cc2)n1,92
O=C1NC(=O)C(c2c[nH]c3ccccc23)=C1c1c[nH]c2ccccc12,88
Cc1ccc(N2CC(NC(=O)N3CCC(C(N)=O)CC3)CC2=O)cc1 (stereo not drawn),96
CCOC(=O)N1CCN(C(=O)CCc2ccc(S(=O)(=O)NC3CCCCC3)cc2)CC1,94
S=C(SCc1cn2cccnc2n1)N1CCCC1,102
COc1ccc(-c2[nH]ncc2CN2CCN(C)CC2)cc1,97
CCNc1ncnc2c1nnn2CC,90
Cn1/c(=N/N)sc2ccccc21,100
CN1CCN(c2ncnc3nc[nH]c23)CC1,97
COc1ccccc1NC(=O)c1cccs1,98

# Single entries from above:
# In RVFV N-RNA inh, S=C(SCc1cn2cccnc2n1)N1CCCC1 shows 102
# In RVFV N-RNA inh, COc1ccc(-c2[nH]ncc2CN2CCN(C)CC2)cc1 shows 97
# In RVFV N-RNA inh, CCC(=O)N1CCN(c2ccc(NC(=S)NC(=O)c3cc4ccccc4o3)cc2Cl)CC1 shows 100
# In RVFV N-RNA inh, CC1CCN(C(=O)CSc2ncnc3c2nnn3Cc2ccc(F)cc2)CC1 shows 92
# In RVFV N-RNA inh, Cc1ccc(N2CC(NC(=O)N3CCC(C(N)=O)CC3)CC2=O)cc1 (stereo not drawn) shows 96

# Next section
SMILES,RVFV N-RNA inh
S=c1[nH]c2c(s1)C1c3ccccc3OCC1CS2 (stereo not drawn),74
COC(=O)Cn1c(=NC(=O)C(C)(C)C)sc2cc(S(N)(=O)=O)ccc21,100
O=C(CSc1nccc(=O)[nH]1)NCc1ccccc1,101
CCNS(=O)(=O)c1ccc(NC(=O)Nc2cccc(C(F)(F)F)c2)cc1,105
Cc1nc2c(C)cccc2c2c1COC2,108
COc1ccc(/C=N/N=C(N)N)cc1,98
Cn1c(SCC(=O)NCC2CCCO2)ncc(C(=O)Nc2ccc(F)cc2)c1=O (stereo not drawn),97
Cc1cc(C(=O)N/N=C/N(C)C)nn1-c1c(Cl)cc(Cl)cc1Cl,95
CN(CC1CCCO1)S(=O)(=O)c1ccc(C(=O)N2CCOCC2)cc1 (stereo not drawn),103
O=C(NCCN1CCNC1=O)c1ccc(OC(F)(F)F)cc1,98
CC(C)(O)c1ccc(-c2ccccc2)cc1,96
O=C(CS(=O)(=O)c1cn(Cc2ccc(Cl)cc2)c2ccccc12)N1CCCCC1,108
OCCN1CCN(Cc2ccccc2)CC1,90
COc1ccc(-c2cc(C3CC3)[nH]c(=S)c2C#N)cc1,90
CC[C@@H](CO)Nc1nc(NCc2ccccc2)c2ncn(C(C)C)c2n1,109
O=c1nc(N2CCOCC2)ccn1Cc1ccc(Br)cc1,91
C=CCN1C(=O)C2Cc3c([nH]c4ccccc34)C(C)N2C1=S (stereo not drawn),79
COC(=O)c1ccc(COC(=O)c2cccs2)cc1,101
N#Cc1c(C2CCNCC2)cc(-c2c(O)cccc2OCC2CC2)nc1N,97
CC(=O)N1CCN(C(=O)Nc2c[nH]c3ccccc23)CC1,95
CCC(C)=C(C(=O)OC)C(=O)OC,106
O=C(CN1C(=O)CC(c2ccco2)Sc2ccccc21)c1ccccc1 (stereo not drawn),95
O=C(C1CC(=O)N(c2ccccc2)C1)N1CCN(c2ccccc2F)CC1 (stereo not drawn),98
N#CC(C#N)=Cc1cccn1-c1ccc(C(F)(F)F)cc1,92
O=C(O)/C=C\C(=O)Nc1ccccc1Sc1nccc(C(F)(F)F)n1,90
CCSCc1cc(=O)[nH]c(-c2ccc(C(F)(F)F)cc2)n1,92
Cn1c(=NC(=O)CN2C(=O)CCC2=O)sc2cccc(F)c21,101
COc1cccc(-c2noc(-c3cc4ccccc4oc3=O)n2)c1,92
O=C(O)CCn1cc(/C=N\NC(=O)c2ccncc2)c(-c2ccccc2)n1,97
CC1CN(C(=O)Cc2ccc(-c3ccccc3)cc2)CC(C)O1 (stereo not drawn),95
COc1cc2nc(N3CCN(C(=O)c4ccco4)CC3)nc(N)c2cc1OC,96&97&90
CN1C=CC=C/C1=C1\N=C(c2ccccc2)OC1=O,101
O=C(c1cccc(F)c1)N1CCN(C(=O)c2cnn3cc(Br)cnc23)CC1,92
Cc1ccc(NC(=O)N2CCCn3c(SCc4ccc(F)cc4)nnc32)cc1,98
CC(C)(C)C(=O)NC(=S)NC1CCSC1=O (stereo not drawn),107
Cc1ccn2cc(CSC(=S)N3CCOCC3)nc2c1,92

# 3 structures already listed, ordered by heavy-atom count, rising.
SMILES,RVFV N-RNA inh
CC1CN(C(=O)Cc2ccc(-c3ccccc3)cc2)CC(C)O1 (stereo not drawn),95
COc1cccc(-c2noc(-c3cc4ccccc4oc3=O)n2)c1,92
Cc1ccc(NC(=O)N2CCCn3c(SCc4ccc(F)cc4)nnc32)cc1,98

# Some of the entries above in another layout:
compound | RVFV N-RNA inh
CSc1nc2ccc(Br)cc2[nH]1 | 94
CCOC(=O)N1CCN(c2c(F)cc3[nH]c(=S)[nH]c3c2Br)CC1 | 93
O=C(NC1CCCC1)c1ccc(Br)s1 | 94
O=c1[nH]cc(S(=O)(=O)N2CCc3ccccc32)c(=O)[nH]1 | 100
CCCn1c(NC(=O)Nc2ccccc2)c2ccccc2nc1=O | 95
S=c1nc[nH]c2c1nnn2Cc1ccc(Cl)cc1 | 97
Cc1c(CC(N)=O)c(=O)oc2cc(O)c(Cl)cc12 | 93
Cc1occc1C(=O)Nc1cccc(/C=C/C(=O)O)c1 | 100
Cc1c(-c2ccn[nH]2)cnn1-c1c(Cl)cc(Cl)cc1Cl | 106
CCOC(=O)c1ccc2nc(C(F)(F)F)cc(N3CC(C)CC(C)C3)c2c1 (stereo not drawn) | 96
CO[C@H]1C[C@@H]2CC[C@@H](C)[C@@](O)(O2)C(=O)C(=O)N2CCCC[C@H]2C(=O)O[C@H]([C@H](C)C[C@@H]2CC[C@@H](O)[C@H](OC)C2)CC(=O)[C@H](C)/C=C(\C)[C@@H](O)[C@@H](OC)C(=O)[C@H](C)C[C@H](C)/C=C/C=C/C=C/1C | 104
COC(=O)c1ccc(COC(=O)c2ccccc2OC)cc1 | 95
CCC(=O)N1CCN(c2ccc(NC(=S)NC(=O)c3cc4ccccc4o3)cc2Cl)CC1 | 100
CC1CCN(C(=O)CSc2ncnc3c2nnn3Cc2ccc(F)cc2)CC1 | 92
COc1nc(N(C)C)nc(N(C#N)S(=O)(=O)c2ccc(C)cc2)n1 | 92
O=C1NC(=O)C(c2c[nH]c3ccccc23)=C1c1c[nH]c2ccccc12 | 88
Cc1ccc(N2CC(NC(=O)N3CCC(C(N)=O)CC3)CC2=O)cc1 (stereo not drawn) | 96
CCOC(=O)N1CCN(C(=O)CCc2ccc(S(=O)(=O)NC3CCCCC3)cc2)CC1 | 94
S=C(SCc1cn2cccnc2n1)N1CCCC1 | 102
COc1ccc(-c2[nH]ncc2CN2CCN(C)CC2)cc1 | 97
CCNc1ncnc2c1nnn2CC | 90
Cn1/c(=N/N)sc2ccccc21 | 100
CN1CCN(c2ncnc3nc[nH]c23)CC1 | 97
COc1ccccc1NC(=O)c1cccs1 | 98
S=c1[nH]c2c(s1)C1c3ccccc3OCC1CS2 (stereo not drawn) | 74

# The list goes on:
SMILES,RVFV N-RNA inh
CCOC(=O)c1cncn1C(C)c1ccccc1 (stereo not drawn),93
COC(=O)C1=C(Nc2ccccc2NC(=O)CCCC(=O)O)CSC1,100
CO[C@H]1C=CO[C@@]2(C)Oc3c(C)c(O)c4c(O)c(c5c(c4c3C2=O)NC2(CCN(CC(C)C)CC2)N=5)=NC(=O)C(C)=CC=C[C@H](C)[C@H](O)[C@@H](C)[C@@H](O)[C@@H](C)[C@H](OC(C)=O)[C@@H]1C,95
CN(C)c1ccc(Nc2nc(-c3cccnc3)nc3ccccc23)cc1,94
CCNc1nc(NCC)n2c(=S)n(CN3CCOCC3)nc2n1,92
COc1cc(/C=C/C(=O)N2CCc3ccccc3C2)cc(OC)c1OC,93
COc1ccc2c(c1)NC(c1cc(Cl)cc(Cl)c1O)c1cccn1-2 (stereo not drawn),83
CN1CCC(NC(=O)c2ccncc2)CC1,96
CC[C@@H](CO)NC(=O)[C@@H]1C=C2c3cccc4[nH]cc(c34)C[C@H]2N(C)C1,91
C=CCn1c(N2CCCC2)nc2c1c(=O)[nH]c(=O)n2C,94
CCOc1ccc(C(=S)N(C)C)cc1,95
COc1ccc(C2NC(=O)Cc3cc(OC)c(OC)cc32)cc1 (stereo not drawn),101
O=C1C2C3C=CC(C3)C2C(=O)N1CCOCc1ccccc1 (stereo not drawn),102

# Source: PubChem BioAssay (ICCB-Longwood Screening Facility, Harvard Medical School)
